RanGTP-Imp inh: disruptors of Ran-importin-beta complex formation – biochemical, FRET, CFP-Ran, YFP-importin-beta, homogeneous, primary screen; actives 1.1% (n = 300,000); cell-free CFP-Ran/YFP-importin-beta FRET ratio; inhibition, % (no concentration beside the values); AID 2216;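 active = most replicates above 15%; inconclusive = exactly half above 15%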;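 also: 0% = DMSO wells and 100% = Ran loaded with GDP instead of GTP; wells of about 40 µL received 100 nL stock; the first replicate is given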
Vif A3G: HIV-1 Vif–A3G interaction blockers – biochemical, TR-FRET, GST-Vif 1-94, biotin-A3G peptide, dose response retest, primary screen (AID 1117319) | TR-FRET GST-Vif / biotin-A3G peptide binding; higher % means a stronger effect; test concentration not given here; strong numbers were not always called active | inhibition, %, or IC50 in µM where a hit was titrated | actives 0.57% (n = 260,000);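 active = above the screen mean plus three standard deviations and confirmed in dose response; inconclusive = results disagree or hit not tested in dose response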;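 also: Vif residues 1-94 fused to GST binding biotinylated APOBEC3G peptide 110-148; 0% = full assay without inhibitor and 100% = GST in place of GST-Vif; retest series ran down from 100 µM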
Calb FLC: affects C. albicans growth with fluconazole; C. albicans CaCi-2 (fluconazole-resistant clinical isolate) + fluconazole, Alamar Blue growth, 48 h; growth inhibition, % (concentration not given with the values); actives 0.57% (n = 300,000); AID 1979;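 active = most replicates above 75%; inconclusive = exactly half above 75%; inactive = most below 75%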;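 also: all wells also contain fluconazole at 8 µg/ml as a sub-toxic cotreatment; 0% = median of DMSO wells and 100% = median of geldanamycin control wells; wells of about 8 µL received 7.5 nL stock; the first replicate is given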
MLL AF4-AF9 inh: inhibitors of human MLL-AF4/AF9 interaction | P42568 | AlphaScreen, biotin-AF4 peptide binding to FLAG-AF9 | inhibition, % at 10 µM | actives 0.47% (n = 350,000) | AID 651704;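 active = every replicate reaching a set inhibition limit, whatever the replicate mean, cut at about 25% in these data; inconclusive = mean inhibition reaches that limit but some replicates miss it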;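 also: 0% = plate neutral control median and 100% = total signal loss; the record names both 10 and 1 µM as test concentration; the first replicate is given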
A1 inh: inhibitors of the anti-apoptotic protein A1, read as caspase activation. actives 0.066% (n = 330,000). MEF A1-2A-BIM cells, Caspase-Glo 3/7 luminescence, 3 h; percent of clofoctol response, vehicle zero. caspase activation, % (no concentration beside the values). AID 2462;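 active = over half of replicate activation scores above 10%, or exactly half above 10 with the replicate mean above 10; inconclusive = replicate mean below 10 yet half the replicates above 10; inactive = over half of replicates below 10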;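 also: wells of about 30 µL received 50 nL stock; many hits fall short of the cut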
T cruzi repl: blocks replication of Trypanosoma cruzi; inhibition, % (test concentration not listed); AID 1885; T. cruzi beta-gal in NIH3T3, luminescence, 90 h; actives 1.4% (n = 300,000);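 active = mean inhibition across valid replicates above about 55%, limit read from the data; inconclusive = mean below that limit but half or more replicates reach it; inactive = mean below it, under half of replicates reach it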;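 also: signal also drops with host cell toxicity which is not excluded here; 0% = plate median of DMSO wells and 100% = zero luminescence signal; higher percent means less beta-gal luminescence so fewer parasites; stock transfer was 50 nL into about 50 µL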
LANA-H2B inh: blocks KSHV LANA binding to histone H2A/H2B | cell-free LANA-H2A/H2B peptide, fluorescence polarization | inhibition, % (no concentration beside the values) | actives 0.6% (n = 320,000) | AID 2629; in the data active = inhibition mostly above about 10%, no sharp cut-off; inactive = mostly below about 6.7%;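 also: stock transfer was 7.5 nL into about 10 µL; 0% = median of vehicle wells and 100% = median of positive control wells; one replicate is shown; the record names a cut of 25% in any replicate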
Target sequence (Q9QR71 whole entry, looked up): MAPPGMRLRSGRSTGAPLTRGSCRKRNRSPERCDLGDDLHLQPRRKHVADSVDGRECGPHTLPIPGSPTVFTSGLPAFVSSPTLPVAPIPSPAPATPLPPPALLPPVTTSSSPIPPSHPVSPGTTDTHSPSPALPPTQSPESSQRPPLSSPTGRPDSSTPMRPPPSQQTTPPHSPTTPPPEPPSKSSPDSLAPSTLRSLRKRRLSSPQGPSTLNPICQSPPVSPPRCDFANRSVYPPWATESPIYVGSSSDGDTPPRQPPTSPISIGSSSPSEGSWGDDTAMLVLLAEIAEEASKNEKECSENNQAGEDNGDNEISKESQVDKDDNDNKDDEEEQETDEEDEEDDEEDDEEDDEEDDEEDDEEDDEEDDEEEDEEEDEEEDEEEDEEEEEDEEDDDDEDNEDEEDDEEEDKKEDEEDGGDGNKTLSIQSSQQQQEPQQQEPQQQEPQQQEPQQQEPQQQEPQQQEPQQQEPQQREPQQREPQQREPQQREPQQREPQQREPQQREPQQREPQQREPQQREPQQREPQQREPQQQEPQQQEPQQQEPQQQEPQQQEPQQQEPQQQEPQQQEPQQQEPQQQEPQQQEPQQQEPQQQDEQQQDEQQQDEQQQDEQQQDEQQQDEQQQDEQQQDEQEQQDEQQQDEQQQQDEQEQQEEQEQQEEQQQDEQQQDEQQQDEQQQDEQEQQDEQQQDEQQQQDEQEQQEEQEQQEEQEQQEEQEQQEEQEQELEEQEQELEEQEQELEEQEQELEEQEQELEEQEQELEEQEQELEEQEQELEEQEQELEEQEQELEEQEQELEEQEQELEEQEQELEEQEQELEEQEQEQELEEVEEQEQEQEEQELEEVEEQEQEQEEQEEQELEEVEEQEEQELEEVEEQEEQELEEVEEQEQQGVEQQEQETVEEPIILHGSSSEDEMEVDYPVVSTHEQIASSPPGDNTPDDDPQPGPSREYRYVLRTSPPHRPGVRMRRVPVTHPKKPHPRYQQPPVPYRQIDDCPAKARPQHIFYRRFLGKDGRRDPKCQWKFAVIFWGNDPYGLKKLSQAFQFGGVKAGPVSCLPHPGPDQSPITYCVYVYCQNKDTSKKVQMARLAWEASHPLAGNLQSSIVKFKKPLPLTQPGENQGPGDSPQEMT
Beta cell apopt: beta cell apoptosis inhibition. INS-1E cytokine-induced death, ATP luminescence, 48 h; percent of positive-control rescue, neutral wells zero. protection from apoptosis, % (concentration not given with the values). actives 0.8% (n = 300,000). AID 435005;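 active = all replicates at 75% or more, or half of them and the mean; inconclusive = half reach 75% but not the mean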;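 also: 0% = cytokine-treated negative control wells and 100% = positive control rescue; higher means more ATP so stronger rescue from cytokine killing; wells of about 40 µL received 100 nL stock; the first replicate is given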
* hit, by the source's call; ? = inconclusive; / = not tested or not shown.

SMILES | RanGTP-Imp inh | Vif A3G | Calb FLC | MLL AF4-AF9 inh | A1 inh | T cruzi repl | LANA-H2B inh | Beta cell apopt
O=C(O)/C=C/C(=O)Nc1nccs1 | -1.8 | 9% | 1 | -2.0 | 0.6 | -18 | -6.8 | -5
CNC(=S)NNC(=O)c1cccn(Cc2ccccc2)c1=O | -2.8 | 7% | -10 | -2.6 | 0.2 | -11 | -2.2 | -7
O=C(NCC1CC1)Nc1cccs1 | -1.5 | / | 1 | -1.7 | 0.1 | -4 | -1.4 | -2
COc1ccc(C2Nc3ccc(Br)cc3C(c3ccccc3)N2CC(=O)O)cc1 (stereo not given) | -0.8 | / | -7 | -1.6 | 0.8 | -18 | -3.1 | 0
C=CCNC(=O)CSc1nnc(-c2ccccc2Cl)n1-c1c(C)n(C)n(-c2ccccc2)c1=O | -0.5 | 1% | 1 | -6.1 | 0.4 | -11 | -17 | -3
COc1ccc(OC)c(NC(=O)CN2C(=O)COc3ccc(S(=O)(=O)N4CCCC4)cc32)c1 | 1.4 | / | -6 | 35* | -1.3 | -14 | 0.7 | 4
c1ccc(-c2csc(Nc3ccc4c(c3)OCCO4)n2)cc1 | 4.1 | 24% | -13 | / | -7.9 | 5 | 3.3 | -5
Cc1cnc(C(=O)OCC(=O)Nc2ccc(Br)c(C)c2)cn1 | / | / | / | 0.9 | -0.3 | / | 3.5 | 0
Cc1cc(OCC(=O)N(Cc2ccco2)C2CCS(=O)(=O)C2)cc(C)c1Cl (stereo not given) | -3.8 | 19% | 5 | -0.7 | -0.4 | 20 | 2.0 | -1
CCN(CC)CCOC(=O)c1ccc(N/C=C(/C#N)c2nc(-c3cc4ccccc4oc3=O)cs2)cc1 | -7.6 | / | 7 | 3.1 | 2.1 | 49 | -2.0 | 2
COc1ccc(NC(=O)CN(C)C(=O)CSCC(=O)Nc2ccc(C)cc2)cc1 | 7.1 | / | 1 | -0.5 | -0.5 | -13 | -0.2 | -8
CCCCC(CC)C(=O)Nc1ccc(C#N)cc1 (stereo not given) | -5.4 | -4% | ? | / | -0.4 | 13 | -1.6 | 4
COc1ccccc1NC(=O)C(C)OC(=O)CCNS(=O)(=O)c1cccc(C(F)(F)F)c1 (stereo not given) | / | / | / | 1.8 | 0.8 | / | -2.6 | -4
O=C(Cn1cnnn1)Nc1cccc(S(=O)(=O)N2CCCCC2)c1 | 5.9 | 20% | -4 | 2.7 | -0.1 | -5 | 2.5 | 0
COc1ccc2c(c1)c(C(=O)CN1CCc3ccccc3C1)c(C)n2C | -2.1 | 33% | -5 | 5.2 | 1.1 | ? | -6.5 | -2
CCCC(=O)Nc1cc(C)c(NC(=O)Cc2ccccc2)cn1 | 0.4 | -1% | 1 | / | -0.6 | -5 | 0.8 | -4
COc1ccc(C)cc1NC(=O)c1cc2c(CO)cnc(C)c2oc1=N | -1.2 | 17% | 8 | 2.5 | 0.1 | 1 | -2.6 | -14
CCOc1ccc(N(CC(=O)NCc2ccco2)S(C)(=O)=O)cc1 | -2.4 | 7% | 6 | / | -0.2 | 3 | 3.4 | -7
COC(=O)c1c(-c2ccccc2Cl)noc1/C=C/N(C)C | 1.0 | -3% | -5 | 2.6 | 0.4 | -21 | -0.7 | -3
O=C(CCc1ccccc1)NNC(=S)NCc1ccc(Cl)cc1 | -0.7 | / | 0 | -8.7 | 0.2 | -10 | -0.2 | -3
CCn1c(COc2ccc(C)cc2)nnc1SCC(=O)Nc1ccc(S(N)(=O)=O)cc1 | -3.1 | 31% | 6 | / | 0.2 | 1 | -0.9 | 1
CCCCn1c(SCC(=O)N2CCCC2)nc2c1c(=O)n(C)c(=O)n2C | 1.0 | 26% | 2 | / | -0.2 | -13 | 5.3 | -13
CN1C(N)=NC(=O)/C1=C/c1ccccc1F | 31* | 5% | 2 | -3.3 | 0.2 | -1 | 5.7 | -3
COC(=O)c1ccc(-c2ccc(Cl)cc2)nc1C | 7.7 | -6% | 0 | / | -3.2 | -5 | 5.5 | 0
COc1ccc(CNS(=O)(=O)c2ccc(-c3ccc(=O)[nH]n3)o2)cc1 | -1.3 | / | 7 | -4.7 | -0.2 | -1 | -3.6 | -5
CC1C(=O)CCN(C(C)(C)C)C1C (stereo not given) | 2.8 | -3% | -2 | / | 0.1 | -12 | -0.6 | 4
CCOc1ccccc1OCCCC(=O)NC1=NCCS1 | 2.1 | -3% | -8 | / | 0.3 | -8 | -0.3 | -11
CC(=O)Nc1ccc(S(=O)(=O)NCC(=O)OCC(=O)N2CCN(c3ccccc3)CC2)cc1 | -0.1 | / | 4 | -0.5 | 0.0 | 0 | 2.4 | -4
CC(=O)Nc1nc(-c2cccc3ccccc23)cs1 | -4.3 | -17% | 0 | 1.3 | 1.2 | 57* | 1.8 | -4
CN(C)S(=O)(=O)c1cccc(C(=O)Nc2ccccc2C(=O)NC2CC2)c1 | / | -6% | / | -0.7 | 0.3 | / | 7.2 | -5
O=C(/C=C/c1ccco1)Nc1ccc2c(c1)OCCO2 | / | / | 9 | 5.1 | -7.3 | / | -1.7 | -7
CC(=O)N(C)c1ccc(NC(=O)c2ccco2)cc1 | 0.4 | -2% | -8 | / | 0.4 | -2 | 1.1 | 2
CS(=O)(=O)NCCC1=CCCCC1 | 0.1 | 4% | 2 | / | -0.3 | -11 | 1.8 | -2
CC(C)(C)c1ccc(OCC(O)CN2CCc3ccccc3C2)cc1 (stereo not given) | ? | / | -17 | -5.8 | 0.4 | 28 | -3.6 | -1
Cc1cc(C)cc(C(=O)NCC(=O)NCc2ccc(S(N)(=O)=O)cc2)c1 | -3.1 | -2% | 0 | -0.4 | -0.4 | 0 | 3.3 | -3
COc1ccc(S(=O)(=O)NCC2CCC(C(=O)NCC(OC)OC)CC2)cc1 (stereo not given) | -1.0 | 4% | 31 | -1.4 | 0.6 | -4 | -1.4 | -1
C/C(=N\NC(=O)c1cccc(S(=O)(=O)N2CCCC2)c1)c1ccc(F)cc1 | -1.7 | -6% | -14 | 2.2 | 1.2 | 0 | 3.5 | /
Cc1ccc(-c2nc3c(c(=O)c4ccccc4n3C)c(=O)n2-c2ccc(F)cc2)cc1 | -1.0 | -2% | 12 | -3.2 | -0.4 | -14 | -7.2 | 4
C/C(CCN1CCCCc2nc(C)c(C)cc21)=N\O[C@H](C)c1cn([C@H](CO)Cc2ccccc2)nn1 | ? | 1% | -9 | / | ? | 3 | 1.6 | -5
O=C/C=C/c1coc2ccc3ccccc3c2c1=O | 0.9 | 8% | 25 | -10 | 0.1 | -14 | -1.8 | -4
COc1ccc(N=C2S/C(=C\c3cc(C)n(C)c3C)C(=O)N2CC(C)C)cc1 | -0.6 | 9% | -1 | / | -0.2 | 33 | -5.2 | 4
O=C(NCc1ccccc1)c1cc(-c2cccc(O)c2)on1 | 0.2 | 14% | -3 | -13 | -2.0 | -6 | -5.5 | 5
CCOc1ccc(C2C=C(c3ccccc3)Nc3nnnn32)cc1 (stereo not given) | -1.6 | 4% | 16 | / | 0.4 | -2 | 1.9 | 0
CCCC(c1nnnn1CCOC)N1CCN(Cc2ccccc2)CC1 (stereo not given) | 1.0 | -2% | 8 | / | -1.5 | -2 | 1.8 | 0
Cc1cc(-n2c(C)cc(C(=S)N3CCOCC3)c2C)ccc1Br | 1.3 | 22% | -6 | 8.0 | 0.0 | 0 | -9.2 | -11

In another format: 2 of the compounds above.
Second line of a record – RanGTP-Imp inh | Vif A3G | Calb FLC | MLL AF4-AF9 inh | A1 inh | T cruzi repl | LANA-H2B inh | Beta cell apopt
- CCN(CC)CCOC(=O)c1ccc(N/C=C(/C#N)c2nc(-c3cc4ccccc4oc3=O)cs2)cc1
  -7.6 | / | 7 | 3.1 | 2.1 | 49 | -2.0 | 2
- CCCC(c1nnnn1CCOC)N1CCN(Cc2ccccc2)CC1 (stereo not given)
  1.0 | -2% | 8 | / | -1.5 | -2 | 1.8 | 0

New compounds follow:
SMILES | RanGTP-Imp inh | Vif A3G | Calb FLC | MLL AF4-AF9 inh | A1 inh | T cruzi repl | LANA-H2B inh | Beta cell apopt
COc1ccccc1C1CCN(C(=O)c2cccc([N+](=O)[O-])c2)CC1 | -0.4 | 1% | -2 | 8.1 | -0.4 | 18 | -3.8 | -2
O=C(NC(C(=O)N/N=C/c1ccncc1)c1n[nH]c(=O)c2ccccc12)c1ccccc1 (stereo not given) | -1.2 | 10% | -2 | 0.8 | 0.4 | -12 | -3.6 | -2
CSCCC(C(=O)OC1CCOC1=O)N1C(=O)c2ccccc2C1=O (stereo not given) | 0.7 | -1% | 10 | -0.4 | 2.1 | -7 | -1.0 | /
CCCCn1c(N)c(N(CCOC)C(=O)COC(=O)C(C)(C)Oc2ccc(Cl)cc2)c(=O)[nH]c1=O | -1.1 | 1% | 1 | 1.1 | 1.1 | -2 | -1.6 | /
Cc1cc(C)n(-c2nc3ccccc3nc2N2CCN(S(=O)(=O)c3cccc(C#N)c3)CC2)n1 | 5.0 | / | -3 | 0.3 | 0.1 | 12 | 5.5 | -2
O=C(NCC1COc2ccccc2O1)C1C2C=CC3(CN(Cc4ccccc4Cl)C(=O)C13)O2 (stereo not given) | -1.4 | -1% | -1 | / | 0.3 | 10 | -4.4 | /
COC(=O)C1(C)NC(c2ccc(O)cc2)C2C(=O)N(c3ccccc3)C(=O)C21 (stereo not given) | -3.4 | / | 6 | -3.5 | 1.7 | -15 | 4.7 | -7
O=[N+]([O-])c1ccc(S(=O)(=O)Nc2ccncc2)cc1 | -0.8 | -10% | 5 | -19 | 1.0 | -11 | 3.4 | /
Cc1nc2ccc(Br)cn2c1C(=O)N/N=C\c1ccccc1[N+](=O)[O-] | 2.8 | -5% | -1 | -1.1 | 0.2 | -3 | -3.3 | 1
COc1ccc(-n2nc3c(c2NC(=O)c2ccccc2S(=O)(=O)C(F)F)CS(=O)(=O)C3)cc1 | 0.2 | / | -3 | 0.1 | 0.9 | 2 | 3.0 | -4
O=C(COc1ccccc1)Nc1nc(-c2ccncc2)cs1 | -1.7 | / | -1 | -1.3 | 0.1 | 16 | -2.4 | -7
Cc1sc2ncnc(NCC(C)(C)N3CCOCC3)c2c1C | 1.8 | 9% | ? | / | -0.1 | / | -3.3 | 85*
CN(CC(=O)Nc1ccccc1C(=O)Nc1ccccc1)C1CCCCC1 | / | / | / | -2.9 | ? | / | -12 | -6
C=C1N(C)c2cc([N+](=O)[O-])c(N)cc2C1(C)C | 4.3 | 22% | 3 | 47* | 1.5 | 68* | 0.2 | 9

Grouped by structure: the compounds so far with an aryl thioether with sulfur outside any ring
SMILES | RanGTP-Imp inh | Vif A3G | Calb FLC | MLL AF4-AF9 inh | A1 inh | T cruzi repl | LANA-H2B inh | Beta cell apopt
C=CCNC(=O)CSc1nnc(-c2ccccc2Cl)n1-c1c(C)n(C)n(-c2ccccc2)c1=O | -0.5 | 1% | 1 | -6.1 | 0.4 | -11 | -17 | -3
CCn1c(COc2ccc(C)cc2)nnc1SCC(=O)Nc1ccc(S(N)(=O)=O)cc1 | -3.1 | 31% | 6 | / | 0.2 | 1 | -0.9 | 1
CCCCn1c(SCC(=O)N2CCCC2)nc2c1c(=O)n(C)c(=O)n2C | 1.0 | 26% | 2 | / | -0.2 | -13 | 5.3 | -13

Screening results (PubChem)
